Ab BasE inh: BasE siderophore biosynthesis inhibition; purified BasE, fluorescence polarization binding displacement; inhibition, % (test concentration not listed); hit rate 0.1% among 84,000; AID 485350;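 active = both replicates above 25% with normal brightness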;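 also: 0% = negative plate control signal and 100% = positive plate control signal; stock transfer was 100 nL into about 30 µL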
LANA-nucl inh: LANA-nucleosome interaction inhibition | FITC-LANA1-23 / chicken nucleosome fluorescence polarization; stronger effect = lower value | z-score (concentration not given with the values) | hit rate 0.3% among 51,000 | AID 720717;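 active = both repeat wells score below -2 in polarization z-score versus plate sample wells, excluding overly bright wells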;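 also: 100 nL library stock added to about 30 µL; numbers are from one replicate; some results filed as inactive read as strong as hits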
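Material: Purified chicken nucleosomes with FITC-labelled LANA N-terminal peptide (1-23) | Reagent: 50 nM FITC-LANA1-23 probe | Medium: TEN-BT buffer, pH 7.5 | Times: 10–45 min incubation at room temperature | Detection: Fluorescence polarization | Replication: Duplicates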
* marks the source's active call; other numbers are inactive results; · = not tested or not shown; & = joins results of further samples. Not all compounds are listed (hit frequency here may not be typical).

SMILES	Ab BasE inh	LANA-nucl inh
CCCCN1CCCC1CNC(=O)c1cc(C#N)c2ccccc2c1OC (stereo not given)	·	1.6
O=C(Nc1cccc(C(=O)NC2CC2)c1)c1cccc(-n2cccc2)c1	2.2	·
C=CCN=CC1=C(O)CCCC1=O	1.8	·
COc1ccc(C2=NN(S(C)(=O)=O)C(c3ccc(C)cc3)C2)cc1 (stereo not given)	-3.4	·
CCOC(=O)CNc1nc(C(C)(C)C)nc2c1nnn2Cc1ccccc1	-6.6	-0.18
CCOc1ccc2nc(N3CCCC(C(=O)NCCCN4CCN(CC)CC4)C3)sc2c1 (stereo not given)	-0.2	-1.1
CCOCC(=O)Nc1nnc(CC)s1	0.0	0.44
CCOC(=O)c1c(C)c(-c2ccccc2)n(CC(=O)NCc2cccs2)c1C	0.7	-0.36
FC(F)(F)c1ccc2c(c1)[nH]c(=S)n2C1CC1	4.3	0.44
c1ccc(N=c2scc(-c3cccs3)n2N=C2CCCC2)cc1	-3.4	·
O=C(Nc1ccon1)c1cc(-c2ccccc2)nc2ccccc12	1.0	-0.32
COc1ccc2c(c1)N(C(=O)NC1CCCCC1)C(C)(C)CC2C (stereo not given)	3.7	·
CCc1ccc(OC(C)C(=O)N(Cc2ccccc2)C2CCS(=O)(=O)C2)cc1 (stereo not given)	-0.9	·
O=C(O)c1cccc2cccc(S(=O)c3cccc4cccc(CO)c34)c12 (stereo not given)	0.9	·
CCC(Sc1nc(N)cc(=O)[nH]1)C(=O)NC(C)c1ccccc1 (stereo not given)	-2.2	0.59
COc1ccc(C(CNC2CC3CC=CC32)N(C)C)cc1OC (stereo not given)	-5.9	·
CC(C)Cn1c(SCC(=O)c2ccc3c(c2)NC(=O)CO3)nc2ccccc2c1=O	2.9	·
O=C(O)c1sc(=S)sc1C(=O)O	2.5	·
CC1Cc2ccccc2N1C(=O)COC(=O)/C=C/c1ccc2c(c1)OCO2 (stereo not given)	1.5	·
COc1ccc(CNCCN2CCOCC2)cc1	1.0	0.15
O=C(CSc1nc2ccccc2[nH]1)NC1CCS(=O)(=O)C1 (stereo not given)	0.4	·
CC(CC(=O)N1CCN(C(=O)c2ccccc2)CC1)c1ccccc1 (stereo not given)	0.4	·
COc1ccc(N2CCN(CCCNC(=O)C3=C(C)C(=O)OC34CCCCC4)CC2)cc1	0.0	-0.41
c1ccc(Cn2ncc3c(N4CCCCC4)ncnc32)cc1	-0.1	-0.7
CCN(C(=O)CN1C=NS(=O)(=O)c2ccccc21)c1ccccc1	1.6	0.99
CCCCc1cc(=O)oc2cc(C)cc(O)c12	2.4	0.24
CCCCOC(=O)Oc1cc2oc(=O)sc2cc1Br	-0.7	-0.034
CSc1nc(-c2ccccc2)nc(Sc2ccccn2)c1C#N	3.7	-0.32
Cc1cc2ncc(C(=O)c3ccccc3O)cn2n1	·	-0.92
COC(=O)c1c(C)[nH]c(C(=O)O)c1C	-0.4	·
CC(C)c1c(O)c2ccccc2[nH]c1=O	0.6	-0.06
CCOC(=O)C1=NNCC1C(=O)OCC (stereo not given)	0.9	·
Cc1ccc(/C=c2\sc3ncnn3c2=O)o1	-0.6	·
CCCc1nnc(NC(=O)Cc2coc3cc(C)ccc23)s1	1.6	-0.41
O=C(Cc1cccc(C(F)(F)F)c1)NCC(c1ccco1)N1CCCCC1 (stereo not given)	0.1	·
Clc1ccc(C(c2ccccc2)N2CCNCC2)cc1 (stereo not given)	-4.5	-0.33
CC1Cc2ccccc2N1C(=O)COc1cccc2c1OC(C)(C)C2 (stereo not given)	2.7	·
COC(=O)c1ccc(NC(=O)Cn2cc(OC)c(=O)cc2CN2CCCCC2)cc1	1.1	1.4
CCCN(C(=O)[C@H]1[C@@H]2C[C@@H]3[C@H]1C(=O)O[C@@H]3C2)c1c(C)cc(C)cc1C	0.2	-0.46
O=c1c(N2CCC3(CC2)OCCO3)csc2ccccc12	0.8	0.49
COC(=O)c1sccc1NC(C)=O	·	0.32
COc1ccc(C(=S)N2CCCCC2)cc1	3.0	0.02
Cc1cc(C(F)(F)F)c(C#N)c(N)c1C#N	-0.7	-0.22
CCOc1ccccc1-c1nc(=S)[nH][nH]1	1.1	0.082
COc1ccc(C2N(c3ccc(OC)cc3)C(=O)C3CCCN32)cc1 (stereo not given)	0.8	-0.81
Cc1ccc2nc(-c3ccc(NS(C)(=O)=O)cc3)sc2c1	-7.2	·
O=C(Cn1cnc2c(nc3n2CCCCC3)c1=O)N1CCCCCC1	2.0	1.2
CCOC(=O)N1CCN(S(=O)(=O)c2cccc3ccc(C)nc23)CC1	2.6	-0.82
Nc1nc(=S)n2c(n1)oc1ccccc12	0.6	-0.14
N#Cc1ccccc1COC(=O)c1ccccn1	4.1	0.007
O=C(CSc1nccc(=O)[nH]1)NC1CCCCCC1	1.6	·
CC1CN(C(N)=S)N(c2ccccc2)C1 (stereo not given)	-2.6	0.21
CCOC(=O)c1cc2n(n1)C(C(F)(F)F)CC(c1ccccc1)N2 (stereo not given)	2.4	·
COC(=O)Nc1nnc(SCc2ccc(C)cc2)s1	-0.5	-0.69
O=C(COCc1cc(-c2cccs2)on1)NC1CCCc2ccccc21 (stereo not given)	-0.5	0.39
CCOC(=O)c1ccc(NC(=O)N2C3CCC2CC(NC(=O)NC24CC5CC(CC(C5)C2)C4)C3)cc1 (stereo not given)	5.2	-0.33
CN(C1CCCCC1)S(=O)(=O)N1CCCC(C(=O)NCc2cccc(Br)c2)C1 (stereo not given)	-0.1	1.2
CCCNC(=O)c1ccc2c(c1)c(C)c(C)n2C	-2.1	0.15
COC(=O)C1=C(C)NC(C)=C(C(=O)OCCCN2CCC(c3ccccc3)(c3ccccc3)CC2)C1c1cccc([N+](=O)[O-])c1 (stereo not given)	0.3	0.1&-0.51
CCSc1nc(-c2ccc(OC)cc2)n(-c2nc3ccccc3s2)n1	1.1	-0.015

A stretch from further up:
SMILES	Ab BasE inh	LANA-nucl inh
O=c1c(N2CCC3(CC2)OCCO3)csc2ccccc12	0.8	0.49
COC(=O)c1sccc1NC(C)=O	·	0.32
COc1ccc(C(=S)N2CCCCC2)cc1	3.0	0.02
Cc1cc(C(F)(F)F)c(C#N)c(N)c1C#N	-0.7	-0.22
CCOc1ccccc1-c1nc(=S)[nH][nH]1	1.1	0.082
COc1ccc(C2N(c3ccc(OC)cc3)C(=O)C3CCCN32)cc1 (stereo not given)	0.8	-0.81
Cc1ccc2nc(-c3ccc(NS(C)(=O)=O)cc3)sc2c1	-7.2	·
O=C(Cn1cnc2c(nc3n2CCCCC3)c1=O)N1CCCCCC1	2.0	1.2
CCOC(=O)N1CCN(S(=O)(=O)c2cccc3ccc(C)nc23)CC1	2.6	-0.82
Nc1nc(=S)n2c(n1)oc1ccccc12	0.6	-0.14
N#Cc1ccccc1COC(=O)c1ccccn1	4.1	0.007
O=C(CSc1nccc(=O)[nH]1)NC1CCCCCC1	1.6	·
CC1CN(C(N)=S)N(c2ccccc2)C1 (stereo not given)	-2.6	0.21
CCOC(=O)c1cc2n(n1)C(C(F)(F)F)CC(c1ccccc1)N2 (stereo not given)	2.4	·
COC(=O)Nc1nnc(SCc2ccc(C)cc2)s1	-0.5	-0.69
O=C(COCc1cc(-c2cccs2)on1)NC1CCCc2ccccc21 (stereo not given)	-0.5	0.39
CCOC(=O)c1ccc(NC(=O)N2C3CCC2CC(NC(=O)NC24CC5CC(CC(C5)C2)C4)C3)cc1 (stereo not given)	5.2	-0.33
CN(C1CCCCC1)S(=O)(=O)N1CCCC(C(=O)NCc2cccc(Br)c2)C1 (stereo not given)	-0.1	1.2

(list continues)
SMILES	Ab BasE inh	LANA-nucl inh
COc1ccc(OC)c(C(=O)c2coc3c2cc(O)c2ccccc23)c1	1.0	-0.73
CCOc1ccc(NC2SC(=O)N(CCC(=O)O)C2=O)cc1 (stereo not given)	-0.7	-0.71
O=C(CN1CCCCC1)N=Nc1c(O)[nH]c2ccccc12	1.6	-0.17
O=C(NCCCn1ccnc1)c1ccccc1Cl	2.3	·
COC(=O)C1=C(C)N(C2CCCCC2)C(=O)/C1=C\c1cccs1	2.3	·
Cc1ccc(S(=O)(=O)N2CCSc3ccccc32)cc1	·	-0.59
Cc1c(CN2CCC(N3CCCCC3)CC2)sc2ccccc12	-1.4	0.075
O=Nc1c(O)[nH]c2cc3c(cc12)OCCO3	0.4	·
CCN(CC)S(=O)(=O)c1ccc(NC(=O)Cc2ccc3c(c2)OCCO3)cc1	2.4	·
O=C(/C=C/c1ccc2c(c1)OCO2)N1CCCCC1	2.1	-0.59
COCCCN=C1NC(=O)C(CC(=O)Nc2ccc(Cl)cc2)S1 (stereo not given)	0.2	0.47
CCOC(=O)C1CCN(Cc2nc3sc4c(c3c(=O)[nH]2)CCCC4)CC1	-0.4	·

Next section, overlapping the part above by two compounds.
SMILES	Ab BasE inh	LANA-nucl inh
COCCCN=C1NC(=O)C(CC(=O)Nc2ccc(Cl)cc2)S1 (stereo not given)	0.2	0.47
CCOC(=O)C1CCN(Cc2nc3sc4c(c3c(=O)[nH]2)CCCC4)CC1	-0.4	·
O=C(Nc1ccc(OC(F)(F)F)cc1)c1ccc(=O)[nH]c1	-0.9	·
O=C(Cc1coc2cc(O)ccc12)OCc1ccccc1C(F)(F)F	2.9	·
C=CCC(O)(c1ccc(O)cc1)C(CN1CCCCC1)c1ccccc1 (stereo not given)	-1.9	0.26
N#CCOC(=O)c1cnc(Cl)c(Cl)c1	2.4	·
CC1N(C)c2ccc(C=C(C#N)C#N)cc2C1(C)C (stereo not given)	-21	·
Cc1ccsc1/C=N/N1CCOCC1	0.8	·
O=C(Cc1ccccc1)Nc1nc2ccccc2[nH]1	0.1	·
CSc1n[nH]c(=O)c2cc(C)nn12	-2.4	·
COc1cc2[nH]c(=S)nc(NCCc3ccc(S(N)(=O)=O)cc3)c2cc1OC	2.6	-0.49
CCCOc1ccc(CC(=O)NC(C)CC)cc1OC (stereo not given)	1.8	0.13
O=c1c2c(nc3nc(NCc4cccs4)[nH]n13)CCCC2	0.0	0.47
NC(=S)CC(=O)Nc1ccccc1	-1.6	·
CS(=O)(=O)Nc1ccc(N2CCN(c3ccc(C(F)(F)F)cn3)CC2)nc1	-0.8	·
CCCCn1c(O)c(C#N)c(C)cc1=O	0.1	·
COCCCN=CC1=C(O)CC(C)(C)CC1=O	3.5	-0.058
O=C(NCc1ccco1)c1ccc2c(c1)CCN2S(=O)(=O)c1ccccc1	-3.1	0.1
NNC(=S)NC12CC3CC(CC(C3)C1)C2	1.8	·
CCc1c(O)n2c(nc3ccccc32)[nH]c1=O	-3.9	9.4
CS(=O)(=O)Nc1ccccc1-c1nc2ccccc2[nH]c1=O	0.3	0.086
CCOC(=O)c1c(CC(C)C)csc1NC(C)=O	0.4	0.31
Cc1nn(-c2ccccc2)cc1/C=N/n1c(-c2ccncc2)n[nH]c1=S	-2.5	0.37
CN(C(=O)COC(=O)C1(c2ccc(Cl)cc2)CC1)C1CCS(=O)(=O)C1 (stereo not given)	-0.6	·
CCOC(=O)c1ccc(-n2c(C)cc(C=NCc3cn4ccsc4n3)c2C)cc1	0.4	·
CCCn1c(SCC(=O)N2N=C(c3ccccc3)CC2c2ccc(OC)cc2)n[nH]c1=O (stereo not given)	0.3	·
CCCCn1c(SCC(=O)NC(=O)NC2CCCC2)nc2ccccc2c1=O	0.8	·
CC[C@@]1([C@@H]2O[C@@H]([C@H]3O[C@@](O)(CO)[C@H](C)C[C@@H]3C)C[C@@H]2C)CC[C@H]([C@]2(C)CC[C@]3(C[C@H](O)[C@@H](C)[C@@H]([C@@H](C)[C@H](C)OC)O3)O2)O1	·	-0.25
Cc1ccc(Cn2ccsc2=NC(=O)C2(C#N)CCCC2)cc1	-4.7	·
O=C(CCS(=O)(=O)c1ccccc1)Nc1ccc2c(c1)C(=O)NC2=O	0.3	-2.1
Cc1nn(CC(=O)NC2CCCC(C)C2C)c(=O)c2cc3cc(F)ccc3n12 (stereo not given)	-4.2	-1.6
CNc1ncnc2c1ncn2[C@@H]1O[C@H](CO)[C@@H](O)[C@H]1O	0.8	-0.022
CN(C(=O)CSc1nc(N)cc(=O)[nH]1)c1ccccc1	0.1	-0.19
CSc1ccc(C(N)CC(=O)O)cc1 (stereo not given)	·	-1.5
COc1ccc(-c2nn(CN(CC(C)C)CC(C)C)c(=S)n2CC2CCCO2)cc1 (stereo not given)	0.5	·
CCOc1cc(CNCc2ccc(CN3CCOCC3)cc2)ccc1OCC(=O)N(C)C	-1.7	·
O=c1oc2cc(Br)ccc2n1CO	-0.8	0.77
Cc1ccc(CNC(=O)COc2nc3ccccc3nc2N2CCOCC2)cc1	4.6	·
CCOC(=O)c1cnn(-c2ccccc2)c1NC(=O)CN1CCOCC1	1.2	-0.054
NCCSc1ncc(-c2ccc(Cl)cc2)[nH]1	-2.9	-0.79
CCOc1ccc(N=c2scc(-c3ccc(S(=O)(=O)N4CCCC4)cc3)n2CC)cc1	-2.2	·
CC(=O)NC(C)C1COc2ccccc2O1 (stereo not given)	1.1	-0.52
CCOC(=O)N1CCC(NS(=O)(=O)c2ccc(Cl)s2)CC1	-0.3	0.71
Cn1nc(-c2ccc(Cl)cc2)c2cc(C(=O)NCc3ccco3)sc21	0.8	0.88
CC(C)(C)NC(=O)N1c2ccccc2Sc2ccccc21	-1.5	·
Cn1c(=Nc2cccc(O)c2)ccc2ccccc21	0.0	·
COc1ccc(NC(=O)CN(C)C(=O)c2oc3ccccc3c2C)cc1	-1.1	·
O=S(=O)(NCc1ccc(-c2cccs2)cc1)c1cccs1	-3.1	·
Cc1nnn(C23CC4CC(CC(C(=O)Nc5ccc(Br)cc5)(C4)C2)C3)n1	1.1	-0.43
Cc1cc(C)c2c3c1C1C=CCC1CN3C(C(=O)O)C1CC=CC21 (stereo not given)	6.2	·
Cc1c(C=Nc2ccc(SC#N)c(Cl)c2)c(O)[nH]c(=O)c1C#N	4.9	-0.88
Cc1cc2occ(CC(=O)Nc3ccc(S(=O)(=O)N4CCOCC4)cc3)c2cc1C(C)C	-1.1	·
